# High-throughput results from PubChem.
# AID504770: growth inhibition of E. coli YBA685, primary screen, V. cholerae RctB inhibitors | E. coli YBA685 rctB-dependent plasmid, OD600 growth, 3 h; active compounds read low | z-score (no concentration beside the values) | hit rate 0.27% among 130,000;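 active means z-score under -2 on both plates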;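 further: wells of about 30 µL received 100 nL stock; score is relative to mean and SD of the test wells; the first replicate is given; strong numbers were not always called active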
# CapD inh: Bacillus anthracis CapD inhibitors, primary screen, biochemical, fluorescence intensity; CapD gamma-glutamyltranspeptidase (Bacillus anthracis Ames Ancestor); purified CapD enzyme, fluorescence intensity read-out; active compounds read low; some hits fall short of the stated cut; z-score (concentration not given with the values); hit rate 0.23% among 140,000; AID 492967, 2010;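 active means z-score under -4 in either of two replicates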;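 further: stock transfer was 100 nL into about 40 µL; score is relative to mean and spread of the plate; one replicate is shown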
# An asterisk follows results filed as active; · = not tested or not shown; & = joins results of further samples. Random draw from the library, and some 0.41% of all compounds hit somewhere here.
SMILES,AID504770,CapD inh
CCOc1cc(C2C(C#N)=C(N)Oc3n[nH]c(-c4ccncc4)c32)cc([N+](=O)[O-])c1OC(=O)N1CCOCC1 (centres undefined),·,0.5
Cn1/c(=N\NC(=O)C2CCCCC2)sc2ccccc21,-0.15,·
CS(=O)(=O)N(CC(=O)Nc1ccc(S(=O)(=O)N2CCOCC2)cc1)c1ccccc1Br,·,0.36
O=S1(=O)CCC(N=Cc2ccc(-c3ccc(Br)cc3)o2)C1 (centres undefined),-0.85,·
CC(C)n1cc(-c2ccc(C(=O)N3CCN(C(c4ccccc4)c4ccccc4)CC3)cn2)cn1,·,-0.58
COc1ccc(OC)c(C(=O)c2cc(OC)c(OC)c(OC)c2)c1,·,-0.68
Cc1nc(N2CCOCC2)nc(Nc2ccc(F)cc2F)c1[N+](=O)[O-],·,-0.59
CCOC(=O)C1CCCN(CC(O)COC(c2ccccc2)c2ccccc2)C1 (centres undefined),0.05,·
CC1CCN(c2nc3c(c(=O)n(C)c(=O)n3C)n2Cc2ccccc2Br)CC1,·,0.9
O=C(NCc1ccco1)/C(=C/c1cccc([N+](=O)[O-])c1)NC(=O)c1ccco1,·,-0.62
Oc1cc(O)c2c(c1)O[C@H](c1ccc(O)c(O)c1)[C@@H](O)C2,·,1.6&8&0.87
O=C(CCSCc1cccc(Cl)c1)NC1CCCC1,0.65,·
CC(C)Cc1ccc(C(=O)O)cc1,0,·
CCSCCOC(=O)C1=C(C)NC2=C(C(=O)CC(C)(C)C2)C1c1cc2c(cc1Br)OCO2 (centres undefined),·,3.7
O=C(OCc1ccc(/C=C/c2ccccc2)cc1)N1CCN(c2cnccn2)CC1,·,11
CC(NC(=O)c1ccco1)C1CCCO1 (centres undefined),0.65,0.77
Cc1cc(NC(=O)c2ccc(N3C(=O)CCC3=O)cc2)nc2c1c(=O)oc1ccccc12,2.3,·
CCOC(=O)c1c(NC(=O)CSc2nnc(CNC(=O)c3ccccc3C(F)(F)F)n2C)sc2c1CCCC2,·,-0.54
S=c1nc(-c2ccccc2)n(CC2CCCO2)c2c1CCCC2 (centres undefined),-0.15,·
O=C(O)C1c2ccccc2C(=O)N(C2CCCC2)C1c1cccs1 (centres undefined),·,0.06

# Entries of single compounds from above. Order of values: AID504770 | CapD inh
# CS(=O)(=O)N(CC(=O)Nc1ccc(S(=O)(=O)N2CCOCC2)cc1)c1ccccc1Br across the screens: · | 0.36
# S=c1nc(-c2ccccc2)n(CC2CCCO2)c2c1CCCC2 (centres undefined) across the screens: -0.15 | ·
# CC(C)n1cc(-c2ccc(C(=O)N3CCN(C(c4ccccc4)c4ccccc4)CC3)cn2)cn1 across the screens: · | -0.58

# (next part)
SMILES,AID504770,CapD inh
CCCNC(=O)C1CCN(C(=O)c2sccc2-n2cccc2)CC1,-0.45,53
COc1ccc(C(=O)NCCc2nc3ccccc3n2CC(C)C)cc1OC,1.2,-0.55
O=C(NNc1ccc(F)cc1)C(O)(c1ccccc1)c1ccccc1,·,-0.86
Cc1cc(C)c(C#N)c(SCC(=O)Nc2nccs2)n1,-0.5,0.15
O=c1[nH]cnc2c1c(-c1ccccc1)cn2-c1ccccc1,-1.1,·
CC1(C)CC(=O)C=C(Nc2ccc(O)cc2)C1,-0.3,-2.3
O=C1c2cccnc2C(O)N1Cc1ccccc1 (centres undefined),1.1,-0.23
Cc1cc(C)c(NC(=O)C2CC2(c2ccccc2)c2ccccc2)c(C)c1 (centres undefined),·,-0.4
CCCN1C(=O)c2cc(C(=O)NC3CCCC3)ccc2C1O (centres undefined),-0.25,0.56
O=C(/C=C/c1cccc(F)c1)Nc1ccon1,-0.1,-0.28
CN(C)CCSc1nnc2c(n1)[nH]c1ccccc12,·,-0.51
CCOc1ccc2c(c1)-c1c(ssc1=S)C(C)(C)N2C(=O)CSc1ncn[nH]1,·,-0.71
COc1ccc(C(=O)Nc2cc(C)c(O)c(S(=O)(=O)c3ccc(Cl)cc3)c2C)cc1,-0.3,-0.04
CC(C)(C)Sc1ccccc1CN1CCN(C(=O)OCc2c(F)cccc2C(F)(F)F)CC1,·,-0.11
Cc1ccc(NC(=O)CSc2nc3[nH]ncc3c(=O)n2-c2ccc(Br)cc2)cc1Cl,·,-0.81
NS(=O)(=O)c1ccccc1Oc1ccc(Cl)cc1Cl,-0.05,0.82
C=CCNC(=O)CN(c1ccccc1)S(=O)(=O)c1ccc(Cl)cc1,·,-0.34
CSC(=S)NNC1=NCCC1,-0.35,·
COCc1nc2ccc(Br)cc2c2c1C(=O)N(NC(=O)c1cc(OC)c3ccccc3n1)C2=O,·,10
Cc1cc(C)c(C)c(S(=O)(=O)N2CCN(c3ccc(F)cc3)CC2)c1C,·,0.32

# Among those listed so far, 2 have a cyano group.
SMILES,AID504770,CapD inh
CCOc1cc(C2C(C#N)=C(N)Oc3n[nH]c(-c4ccncc4)c32)cc([N+](=O)[O-])c1OC(=O)N1CCOCC1 (centres undefined),·,0.5
Cc1cc(C)c(C#N)c(SCC(=O)Nc2nccs2)n1,-0.5,0.15

# (next part)
SMILES,AID504770,CapD inh
N#Cc1nccnc1N1CCN(S(=O)(=O)c2ccc(F)cc2F)CC1,·,1.5
C(=N\OCc1nnc(-c2ccc3ccccc3c2)o1)/c1cccc2c1OCO2,0.25,26
Cc1ccc(S(=O)(=O)N(CC(O)Cn2c3ccccc3c3ccccc32)c2ccc(Br)cc2)cc1 (centres undefined),·,4.1
C=CCn1c(CSc2ccc(C)cc2)n[nH]c1=S,-0.15,·
CSc1sc(C(=O)NNC(=O)C2CC(C)C3CCCC23)c2c1C1(CCC2)SCCS1 (centres undefined),·,-0.72
O=C(Nc1nc2nc(-c3cccs3)cc(C(F)(F)F)c2s1)c1ccco1,-0.3,·
COc1ccc(NC(=O)C2CC(=O)N(Cc3ccccc3)C(=Nc3ccc(F)cc3)S2)cc1 (centres undefined),·,-1.1
CN(Cc1ccccc1)C(=O)c1cc(-c2ccco2)[nH]n1,-0.3,0.43
O=C(COC(=O)c1c(-n2cccc2)sc2c1CCCC2)Nc1ccc(F)cc1,1.3,·
Cc1ccc(-n2nc3c(c2NC(=O)c2cc(Br)ccc2Cl)CS(=O)(=O)C3)c(C)c1,·,-0.25
COc1cc(OC)cc(C(=O)NCCOC23CC4CC(CC(C4)C2)C3)c1,-0.75,0.63
CC(C)CNS(=O)(=O)c1ccccc1C(=O)N1CCCCC1,-0.1,-0.55
Cc1ccc(S(=O)(=O)N(C)CC(=O)Nc2ccccc2C(F)(F)F)cc1,-0.85,0.05
CCOC(=O)c1sc2nc(SCC(=O)Nc3ccc(N(C)C)cc3)n(CC3CCCO3)c(=O)c2c1C (centres undefined),·,-0.57
CCOC(=O)COc1ccc(C#N)cc1,-0.75,0.68
C=CCn1c(=O)c2ccc(C(=O)NCc3ccc4c(c3)OCO4)cc2n(CC(=O)Nc2cc(C)[nH]n2)c1=O,-0.35,-0.43
CC(=O)Nc1ccc(CSc2ccccc2)cc1,0.4,-0.04
CN1CCc2c(OCC(=O)N3CCCc4ccccc43)cccc2C1=O,0.4,·
O=C(NCc1ccccc1Cl)C1CCCN(c2nc3ccccc3o2)C1 (centres undefined),-1.1,-2.3
Cc1cc2n(n1)SC(Nc1ccc(F)c(Cl)c1)N2 (centres undefined),0.3,0.48
CS(=O)(=O)Nc1ccccc1C(=O)Nc1ccc2c(c1)OCCO2,-0.35,-0.18
COc1cc(C2CC(=O)Nc3c2ccc2ccccc32)ccc1OC(=O)c1cccs1 (centres undefined),·,1.1
Cc1nc(-c2ccccc2)sc1C(=O)N1CCCc2ccccc21,-0.25,-1.2
Cc1ccc2[nH]c(=O)c3cc(C(=O)N(C)C4CCCCC4)sc3c2c1,-0.45,0.46
Oc1ccc(Nc2nc(Nc3ccc(O)cc3)nc(N3CCOCC3)n2)cc1,·,0.2
COC(=O)c1cnc(Cl)cc1Cl,0.85,-0.015
Cc1ccc(-c2nc3ccc(C)cn3c2NC(=O)c2ccc(Cl)cc2)cc1,·,-0.28
N#Cc1ccccc1Oc1ccc(Cl)cc1Cl,·,-0.19
CN(Cc1ccc(Cl)s1)Cn1cnnc1C#N,0,·
CCOC(=O)N1CCC(NC(=O)c2ccc3c(c2)N=C(CC)c2ccccc2S3)CC1,-0.6,-0.43
CC(C)CC1(C(=O)O)NC(c2ccccc2O)C2C(=O)N(Cc3ccccc3)C(=O)C21 (centres undefined),·,-0.21
COC(=O)c1ccc(C2Oc3c(OC)cccc3C3CC(c4ccc(F)cc4)=NN32)cc1 (centres undefined),·,-0.11
Cc1cc(NO)nc(-c2ccc(Br)cc2)n1,1.2,-0.61
CCCn1c2ccccc2c2nnc(SCN3C(=O)c4ccccc4C3=O)nc21,-0.25,0.37
CN(C)CCN1C(=O)C(=O)/C(=C(/O)c2ccccc2)C1c1ccc(O)cc1 (centres undefined),·,0.09
FC(F)(F)COc1ccc(-c2nc(-c3ccc(Cl)cc3)cs2)cn1,0.75,15
Cc1cccc(OCCn2c(SCCC(=O)O)nc3ccccc32)c1,0.05,-0.46
CC(C)c1ccc(N=C2CC(=O)NN2)cc1,-2,-0.18
COc1ccc(-c2oc(N(C(=O)c3cccs3)C(=O)c3cccs3)c(C#N)c2-c2ccc(OC)cc2)cc1,-0.6,·
Cc1nc(-c2ccccn2)nc(N(C)Cc2ccccc2)c1Cl,-0.15,1
N=C(N)SCc1ccc(F)cc1,0.6,1.4&-0.49
Cn1cncc1CC1COC(=O)C1C(O)c1ccccc1 (centres undefined),-1.4,0.68
CC1CC(C)(C)N(C(=O)CN2C(=O)c3ccccc3C2=O)c2ccccc21 (centres undefined),·,-0.24
C=CCNC(=O)c1cccc(Br)c1,-1.3,·
C/C(=N\OC(=O)Nc1c(-c2c(Cl)cccc2Cl)noc1C)c1ccc(F)cc1,·,-0.23
CN1CCc2ccccc2C1Cc1ccccc1NS(=O)(=O)c1cc(Cl)c(Cl)cc1Cl (centres undefined),2.4,-1.4
Cc1noc(C)c1-c1nc(CN2C(=O)c3ccccc3S2(=O)=O)no1,0.05,0.92
O=S(=O)(c1ccccc1Br)N1CCN(c2cc(C(F)(F)F)nc3ccccc23)CC1,·,2.1
COc1ccc(-c2nc3ccc(C(=O)N4CCN(c5ccccc5)CC4)cc3nc2-c2ccc(OC)c(OC)c2)cc1OC,·,-0.55
Cc1nc(-c2ccc(S(=O)(=O)NCc3cccnc3)s2)cs1,-0.25,4
CC(NC(=O)C12CC3CC(CC(C3)C1)C2)C(=O)NC1CCCCC1 (centres undefined),0.95,·
Cc1csc2ncc(C(=O)NCc3cccs3)c(=O)n12,-0.05,-0.17
COC(=O)c1ccsc1NC(=O)c1ccc(N(C)C)cc1,1.8,9
Cc1cccc(NC(=O)Cn2cnc3ccccc3c2=O)c1C,-0.85,0.61
C=C1c2c(Cl)ccc(O)c2C(O)=C2C(=O)[C@]3(O)C(O)=C(C(N)=O)C(=O)[C@@H](N(C)C)[C@@H]3[C@@H](O)[C@H]12,-4.2*,0.66&-0.6
N/C(=N\O)c1cnn2c(-c3cccc(C(F)(F)F)c3)ccnc12,·,-0.73
CC(CS(=O)(=O)c1ccccc1)N1CCOCC1 (centres undefined),-0.55,0.17
COc1ccc(Nc2nc(Cl)nc(NCCO)n2)cc1,-1,·
C=CCOC(=O)C1=C(C)N(CC)C(=O)NC1c1cc2c(cc1Br)OCO2 (centres undefined),·,-0.42
Cc1cc(S(=O)(=O)NCCN(C)C)c(C)s1,-1,0.5

# Other compounds
SMILES,AID504770,CapD inh
CCN1CCN(C(=O)C2=CC(c3ccc(F)cc3)=NS(=O)(=O)N2C)CC1,0.2,0.39
O=C(COc1c(Br)cc(Br)c2cccnc12)N1CCNC1=O,1.4,·
Cc1cc(=O)n2[nH]c(C(C)(C)C)cc2n1,1.9,0.34
C=CCN(CC=C)C(=O)Nc1c(C)cc(C)c2c1CC(C)(C)C2=O,0.35,0.39
CCn1nc(C)cc1C(=O)Sc1ccccc1Cl,0.5,10
Cc1ccc(N/C(N)=N/c2nc(C(F)(F)F)cc(C(F)(F)F)n2)cc1,-0.65,-0.3
OC1CCN(Cc2ccccc2)CC1,1.1,-0.27
O=C(C1CCCO1)N1CCN(C(=S)NCc2ccc(F)cc2)CC1 (centres undefined),-0.95,-0.15
COc1ccc(S(=O)(=O)N2Cc3ccccc3CC2C(=O)N2CCCCCC2)cc1 (centres undefined),1.4,0.33
O=C1NN(c2ccccc2)C(=O)/C1=C\C=C\c1ccco1,·,-1.4
C[C@]12CCC(=O)C=C1C=CC1C2CC[C@@]2(C)C1CC[C@@]21CCC(=O)O1 (some centres undefined),0.7,·
Cc1ccc(NC(=O)C(=O)NCC(C)C)cc1C,·,0.41
CC1CCCN(C(=O)c2ccc(NS(=O)(=O)c3cccs3)cc2)C1 (centres undefined),0.8,-1.3
CCCc1nc2ccccc2c(C(=O)OCC(=O)NC)c1CC,0.05,·
NNC(=O)Cc1csc(CC(N)=O)n1,-0.7,·
O=C(NNC(=O)c1ccccc1-n1cccc1)c1ccsc1,·,-0.43
CCCCC(=O)Nc1ccc(C(=O)NCc2cccnc2)cc1,1.5,-0.45
COc1cccc(/C=N\N2CCN(c3ccccc3OC)CC2)c1,-0.2,0.025
Cc1sc2nc(CSC(C)C(=O)NC3(C#N)CCCCC3)[nH]c(=O)c2c1C (centres undefined),-0.6,·

# Arranged by formula weight (low to high): three of the compounds above
SMILES,AID504770,CapD inh
O=C1NN(c2ccccc2)C(=O)/C1=C\C=C\c1ccco1,·,-1.4
C=CCN(CC=C)C(=O)Nc1c(C)cc(C)c2c1CC(C)(C)C2=O,0.35,0.39
O=C(COc1c(Br)cc(Br)c2cccnc12)N1CCNC1=O,1.4,·

# Reprinted at random: 2 records from the list
SMILES,AID504770,CapD inh
CC1CCCN(C(=O)c2ccc(NS(=O)(=O)c3cccs3)cc2)C1 (centres undefined),0.8,-1.3
Cc1cc(=O)n2[nH]c(C(C)(C)C)cc2n1,1.9,0.34
